Screening data from PubChem BioAssay.
Bm FixLJ act: activators of Burkholderia fixLJ two-component system; B. multivorans fixK-promoter GFP reporter, 18 h; hits give high values; z-score (no concentration beside the values); AID 1918990; 0.3% of 29,000 active;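 active means replicate mean overnight rise in green fluorescent reporter signal, 3 or more SD over negative controls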;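 further: score is relative to vehicle wells of the plate; 300 nL library stock went into each well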
Starred values were filed as active, the others as inactive; & = joins results of further samples. These rows are one share of the data; count on the stated rates, not on these rows.

SMILES	Bm FixLJ act
Cn1c(=O)oc2cc(S(=O)(=O)NCCC(=O)Nc3ccc(F)cc3F)ccc21	-0.42
CC1(C(=O)N2CCC3(CC2)CN(c2noc(C4CC4)n2)CCO3)CC1	0.83
COC(=O)c1[nH]ncc1CN1CCC(C(C)=O)(c2ccccc2)CC1	-0.17
COc1ccc(-c2noc(CNC(=O)c3ccco3)n2)cc1	-1
CCOc1ccc(N2CC(c3nc4ccccc4n3Cc3cccc(C)c3)CC2=O)cc1 (stereo not given)	-0.53
COCCNc1nc2cc(C(=O)NC3CCC(N)C3)ccc2n1C (stereo not given)	-0.83
O=C(Nc1ccc(F)c(Cl)c1)C1CCCN(S(=O)(=O)c2cccc3nsnc23)C1 (stereo not given)	-1.5
O=C1CC(c2cc(F)cc(F)c2)c2cc3c(cc2N1)OCO3 (stereo not given)	-0.44
COc1ccc(-c2nn(-c3ccccc3)cc2C2NC(=O)NC(C)=C2C(=O)OC(C)C)cc1Cl (stereo not given)	-0.84
CC(C)CCCC(=O)N1CC(O)C(Cc2ccnc3ccccc23)C1 (stereo not given)	-2
COc1ccc(C2CC(=O)c3cc(-c4nc(-c5ccc(Cl)cc5)cs4)c(=O)[nH]c3C2)cc1OC (stereo not given)	-1.2
Cc1ccc(C)c(N(C)C(=O)C2CCN(S(=O)(=O)c3cccc4nsnc34)CC2)c1	0.51
CCCCn1c(C2CC(=O)N(c3ccc(OCC)cc3)C2)nc2ccccc21 (stereo not given)	-1.6
CCc1ccc(-n2nc3ccc(NC(=O)c4cc(Cl)c(OC)c(Cl)c4)cc3n2)cc1	-0.82
CCN(CC)S(=O)(=O)c1ccc2c(c1)c(=O)c(C(=O)NCc1ccccc1)cn2C	-0.36
COc1cccc(CNC(=O)c2cc(-c3ccc(Cl)s3)nc3ccccc23)c1	-0.54
O=C(Nc1ccc(Cl)cc1)C1CCN(S(=O)(=O)c2ccc(Br)s2)CC1	0.18
COc1ccc(C(=O)NCc2nnc(SCC(=O)Nc3ccc(F)cc3)n2-c2ccccc2)cc1	0.45
COc1ccc(-n2nc(C(=O)Nc3ccc(Cl)cn3)c3c4ccccc4n(C)c3c2=O)cc1	-0.29
COc1cccc(Nc2nc3cc(Cl)c(Cl)cc3nc2-n2nc(C)cc2C)c1	0.23
C[n+]1cc2c3c(ccc2c2ccc4cc5c(cc4c21)OCO5)OCO3	-4.6
Cc1oc2ccc(OCc3ccccc3)cc2c1C(=O)NC1CCCNC1=O (stereo not given)	0.9
O=C(c1ccc(CS(=O)(=O)c2ccc(Br)cc2)o1)N1CCN(c2ccc(F)cc2)CC1	0.7
Cc1cc(C(=O)N2CCC3(CC2)OCCc2c3[nH]c3ccccc23)no1	-0.53
CCOc1ccc2oc(=O)cc(CN3CCN(Cc4ccc(C)cc4)CC3)c2c1	-0.13
COc1ccc(/C=C/C(=O)Nc2ccc3nc(N4CCC(C)CC4)cc(C)c3c2)cc1	0.11
CCN(C(=O)CCNC(=O)Cn1cnc2ccccc2c1=O)c1cccc(Cl)c1	-1.7
CCC(C)[C@@H](C(=O)Nc1ccc(C)cc1)N1Cc2ccccc2C1=O (stereo not given in full)	-0.27
CSc1ccc(C(c2c(O)c3ccccc3oc2=O)c2c(C)n(C)n(-c3ccccc3)c2=O)cc1 (stereo not given)	1.6
COc1ccc(N2CCN(C(=O)C3CCCN(C(=O)c4cc5sccc5n4C)C3)CC2)cc1 (stereo not given)	0.54
Cc1ccc2c(c1)c(CNC(=O)CCc1c(C)nn(C)c1C)nn2C	0.35
CCOc1ccc(-c2nonc2NC(=O)c2oc3cc(C)c(C)cc3c2C)cc1OCC	-2.7
Cc1ccsc1CN1CC(C(=O)O)CC(C(=O)NCc2cccnc2)C1 (stereo not given)	1.1
O=C(CSc1oc(-c2ccco2)nc1S(=O)(=O)c1ccccc1)c1ccc(Cl)cc1	-1.6
CCN(CCCNC(=O)c1cc2c(=O)n(CC)c3ccccc3c2s1)Cc1ccccc1	-0.05
O=c1cc(-c2ccccc2)c2ccc3c(c2o1)CN(Cc1ccccc1)CO3	0.95

4 entries picked at random from the list so far:
SMILES	Bm FixLJ act
CCOc1ccc(-c2nonc2NC(=O)c2oc3cc(C)c(C)cc3c2C)cc1OCC	-2.7
CSc1ccc(C(c2c(O)c3ccccc3oc2=O)c2c(C)n(C)n(-c3ccccc3)c2=O)cc1 (stereo not given)	1.6
O=C(CSc1oc(-c2ccco2)nc1S(=O)(=O)c1ccccc1)c1ccc(Cl)cc1	-1.6
COc1ccc(N2CCN(C(=O)C3CCCN(C(=O)c4cc5sccc5n4C)C3)CC2)cc1 (stereo not given)	0.54

Carrying on:
SMILES	Bm FixLJ act
COCC1C(NC(=O)Nc2ccc(Oc3ccccc3)cc2)C2CCOC21 (stereo not given)	0.37
CCOC(=O)[C@@]12CCC(N3CCOCC3)C[C@H]1CCN(Cc1cccc(C(=O)O)c1)C2 (stereo not given in full)	0.79
Cc1ccc(CSc2nnc([C@@H](N)C(C)C)o2)cc1	1.7
COc1ccc(CCn2c(=O)c3ccccc3n(CC(=O)Nc3cccc(C)c3)c2=O)cc1OC	0.84
O=C(NCCc1ccccc1)c1ccc2c(c1)N(Cc1ccc(Cl)cc1)C(=O)c1ccccc1S2(=O)=O	0.06
COC(=O)Nc1nc2ccc(C(=O)c3ccccc3)cc2[nH]1	-1.4&-1.7
CCOc1ccc(N2CC(c3nc4ccccc4n3CCOc3ccccc3)CC2=O)cc1 (stereo not given)	-3.6
O=c1oc2ccccc2cc1-c1nnc(Nc2ccc(Cl)cc2Cl)s1	-0.45
CCN(CC)CCCC(C)Nc1ncnc2sc(C(=O)O)c(C)c12 (stereo not given)	-0.06
O=C(NCc1ccc(Cl)cc1)c1cc(-c2ccc(F)cc2)on1	-0.64
CS(=O)(=O)CCC(=O)NC1C2CN3CCN(C2)CC1(c1ccccc1)C3 (stereo not given)	-0.21
O=C(Nc1ccc(O)cc1)c1cccc(S(=O)(=O)N2CCOCC2)c1	0.25
Clc1ccccc1CNc1nc2ccccc2c2nc(-c3cccnc3)nn12	-1.5
CCCN1CCN(C(=O)Cn2c(-c3cccs3)cc3cc(F)ccc32)CC1	-0.68
Cn1nnnc1SCCNCc1ccccc1OCc1ccccc1F	-0.75
O=C(Nc1cccc(F)c1)c1ccc2snnc2c1	-0.23
Nc1nccc(N2CCC(c3n[nH]c(=O)n3Cc3ccccc3)CC2)n1	-2.1
CN(C)S(=O)(=O)CC1CN(C(=O)c2cccc(-c3ccc(O)cc3)c2)CC1O (stereo not given)	-1.1
CCOc1ccc2oc(=O)cc(CN3CCN(C(=O)c4cccc(F)c4)CC3)c2c1	-0.56
Cc1cc(C(=O)Nc2c(C)cccc2C)n(-c2ccccc2)n1	-0.44
O=C(CSc1nc2c(oc3ccccc32)c(=O)n1-c1ccccc1)Nc1ccccc1F	-1.3
Cc1cc(N2CCCC(O)(CN(C)C)CC2)nc(-c2ccccc2)n1 (stereo not given)	-1.7
CCOC(=O)N1CCC(N2CC3CCC[C@](O)(c4ccccc4)C3C2)CC1 (stereo not given in full)	-0.66
CCN(Cc1ccccc1)Cc1c(O)ccc2c(=O)c(-c3ccccc3)c(C(F)(F)F)oc12	0.85
COc1ccc(Nc2nn(-c3ccc(OC(F)(F)F)cc3)nc2C(C)=O)cc1	-3
Cc1cc(C)n(Cc2ccc(C(=O)NCc3cccc(C(=O)O)c3)cc2)n1	-1.6
Cc1nn(C)c(C)c1CCc1n[nH]c(Cc2cccs2)n1	0.57
O=C(CN1C(=O)CC(c2ccco2)Sc2ccccc21)Nc1ccc(Br)cc1 (stereo not given)	-0.41
CCCCCn1c(=O)[nH]c2cc(C(=O)N3CCN(c4ccccc4F)CC3)ccc2c1=O	1
COc1ccc(-c2nc(SCC(=O)Nc3ccc4c(c3)OCO4)c(-c3ccc(F)cc3)[nH]2)cc1OC	0.11
O=C(O)CCc1nc(-c2ccccc2)c(-c2ccccc2)o1	-0.29
Cn1c(=O)c2c(ncn2C)n(C)c1=O	0.43
CC(C)C(CNS(=O)(=O)N(C)Cc1ccccc1)N1CCCC1 (stereo not given)	1.1
COCC1C(NC(=O)c2cnc(-c3cccnc3)nc2C)C2CCOC21 (stereo not given)	0.69
Cn1c(=O)c(=O)n(C)c2cc(S(=O)(=O)N3CCN(c4ccccc4F)CC3)ccc21	0.24
CCn1c(CN2CCCC2)nnc1C1CCN(C(=O)CCC2CC2)CC1	-0.55
CCc1cccc(NC(=O)CN(C)S(=O)(=O)c2cccc3cccnc23)c1	-1.1
CCOc1ccc(CN(CCc2ccc3c(c2)OCO3)Cc2cccc(C)c2)cc1	1.4
COc1ccc(NC(=O)c2ccc(-c3cccc(Cl)c3C)o2)cc1	-0.14
COc1ccc(-n2nc(C(=O)NCCc3cccc(C)c3)c3c4ccccc4n(C)c3c2=O)cc1Cl	0.31
CCC(C)NC(=O)c1sc2nc(C)c(C(=O)Nc3ccc(Cl)cc3)c(-c3ccc(Br)cc3)c2c1N (stereo not given)	0.74
O=C(c1cccc2c1NCCC2)N(Cc1ccncc1)CC1CCCO1 (stereo not given)	-1.8
COc1ccccc1N1CCN(S(=O)(=O)c2c(C)sc3ncn(CC(=O)N(C)c4ccc(C(C)C)cc4)c(=O)c23)CC1	-0.23
Cn1c(=O)c2c(nc(SCC(=O)Nc3ccc(F)cc3)n2Cc2ccccc2F)n(C)c1=O	-1.5
Cc1cc(C)cc(NC(=O)C2CCCN(S(=O)(=O)c3cccc4nsnc34)C2)c1 (stereo not given)	-0.55
CC(=O)NC(C)CC(=O)Nc1ccc(CC(=O)NC2CC2)cc1 (stereo not given)	-1.5
C=C(C)CSc1nc2sc3c(c2c(=O)n1Cc1ccccc1)CC(C)(CC)OC3 (stereo not given)	0.44
CCOc1ccccc1NC(=O)c1cn(C2CCCC2)c(=O)c2c1c1ccccc1n2C	1.4
CC(=O)O[C@H]1C[C@@H]2CC[C@@H]3[C@H](CC[C@@]4(C)[C@H]3C[C@H]([N+]3(C)CCCCC3)[C@@H]4OC(C)=O)[C@@]2(C)C[C@@H]1N1CCCCC1	-2
Cc1cc2n(n1)CCCN2C(=O)Nc1ccc(C)c(Cl)c1	-0.62
Cc1cccc(NC(=O)c2ccc(-c3ccccc3)s2)c1	-2.8
CCn1c(N)nc2cc(C(=O)NCCc3nc4c(s3)CCC4)cnc21	0.41
Cc1cccc(N2CCN(c3nc4ccc(C)cc4n4cnnc34)CC2C)c1 (stereo not given)	0.37
Cc1cccc(N2CCN(C(=O)c3cn(C)c4ccc(S(=O)(=O)N(C)C)cc4c3=O)CC2C)c1 (stereo not given)	-0.41
Cc1nnc(N2C(=O)c3oc4ccccc4c(=O)c3C2c2ccc(F)cc2)s1 (stereo not given)	-1.5
Cc1cccc(Cn2nnc3c(=O)[nH]c(C4CCCN(C(=O)c5ccccc5Cl)C4)nc32)c1 (stereo not given)	-0.98
Cc1ccc(OCC(=O)Nc2c(C(=O)c3ccc(Cl)cc3)oc3ccccc23)cc1C	-0.9
O=C(Nc1cccc(OCc2cc(=O)n3c4c(sc3n2)CCCC4)c1)c1ccc(F)cc1	-2.2
COc1ccc(Cl)cc1NC(=O)CSc1nc2c(oc3ccccc32)c(=O)n1Cc1ccco1	-0.33
CCCN(C(=O)c1c(C)oc2ncnc(N3CCOCC3)c12)c1ccc(Cl)c(Cl)c1	0.03

Reprinted from the part before: 3 compounds, followed by the next part.
SMILES	Bm FixLJ act
O=C(Nc1cccc(OCc2cc(=O)n3c4c(sc3n2)CCCC4)c1)c1ccc(F)cc1	-2.2
COc1ccc(Cl)cc1NC(=O)CSc1nc2c(oc3ccccc32)c(=O)n1Cc1ccco1	-0.33
CCCN(C(=O)c1c(C)oc2ncnc(N3CCOCC3)c12)c1ccc(Cl)c(Cl)c1	0.03
O=c1[nH]c(C2CCCN(S(=O)(=O)c3ccccc3)C2)nc2c1nnn2Cc1ccccc1Br (stereo not given)	-2.9
COc1ccc(NC(=O)CC2C(=O)N(c3ccc(OC)cc3)C(=O)N2C2CCCCC2)cc1 (stereo not given)	-0.66
Nc1ccc(CC(=O)NC2COCC2Cc2ccncc2)cc1 (stereo not given)	-6
COc1ccc(NC(=O)C(NC(=O)/C=C\c2ccc3c(c2)OCO3)c2ccccc2)cc1 (stereo not given)	0.16
Cc1ccc2oc3c(c(=O)c2c1)C(c1ccccc1F)N(CCCN1CCOCC1)C3=O (stereo not given)	-0.81
CCCCc1ccc(C(=O)Nc2ccc3nc(N4CCN(CC)CC4)cc(C)c3c2)cc1	-3
Cc1c(NC(=O)c2nc3ccccc3nc2N2CCCCC2)cccc1[N+](=O)[O-]	-2.8
O=C(Cn1ncn2c(cc3cc(F)ccc32)c1=O)NC1CCCCC1	-1.9
CCOc1ccc(NC(=O)C(NC(=O)C2CCC(C)CC2)C(C)C)cc1 (stereo not given)	-0.96
CCc1ccc(C(=O)NC2=NC(c3ccccc3F)CC(=O)N2)cc1 (stereo not given)	-0.66
CCCN(CCC)C(=O)Cn1c(=O)n(-c2ccc(CC)cc2)c(=O)c2c3c(sc21)CCC3	0.18
Cc1nc(CCNC(=O)N2CCN3C(=O)OCC3C2)sc1Cl (stereo not given)	-0.62
Cc1ccc(-c2cc(NC(=O)c3ccccc3Cl)on2)cc1	-2.2
Cc1c(C(=O)NC2CC(C(=O)O)C2)n(C)c2c(C)cccc12 (stereo not given)	-0.68
Cc1cccc(-c2ncc(CN3CCC(C(O)c4nccn4C)CC3)cn2)c1 (stereo not given)	-1.6
Cc1cccc2nc(-c3ccccn3)c(Nc3ccc(F)cc3)n12	-2.1

Arranged by formula weight (smallest number first): 4 of the compounds above.
SMILES	Bm FixLJ act
Cc1c(C(=O)NC2CC(C(=O)O)C2)n(C)c2c(C)cccc12 (stereo not given)	-0.68
CCc1ccc(C(=O)NC2=NC(c3ccccc3F)CC(=O)N2)cc1 (stereo not given)	-0.66
Cc1cccc(-c2ncc(CN3CCC(C(O)c4nccn4C)CC3)cn2)c1 (stereo not given)	-1.6
CCCN(CCC)C(=O)Cn1c(=O)n(-c2ccc(CC)cc2)c(=O)c2c3c(sc21)CCC3	0.18
